# Compound activity as filed in PubChem BioAssay.
# Arbovirus anti – arbovirus infection inhibition; inhibition, % at 10 µM; AID 1251; 200,000 compounds, 0.37% hits; arbovirus infection cell-based antiviral screen;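 active = inhibition from about 30%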;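 also: bluetongue infection of BSR cells; cell survival read as ATP light after 72 h; 0% = infected wells without compound and 100% = uninfected wells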
# Mtb bLac sens – beta-lactam sensitization of Mtb H37Rv | M. tuberculosis H37Rv growth with meropenem, percent inhibition; hits of this screen are not shown here | AID 434955 | inhibition, % at 25 µM | 330,000 compounds, 0.27% hits;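 active = about 74% or more and at least 40 points above the plate without the antibiotic, then above 30% in a dose series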;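 also: growth measured after seven days incubation then overnight dye step; 0% = bacteria only wells and 100% = bacteria with antibiotic; twin plates without the antibiotic show which effects depend on it; some results filed as inactive read as strong as hits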
# YopH inh – YopH (Yersinia) phosphatase inhibition. AID 898. 140,000 compounds, 0.16% hits. fluorescence Ex485/Em525. inhibition, %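 (about 10 µM by stock and volumes)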;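 active = inhibition of 50% or more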;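 also: controls were vehicle for no effect and minimum signal wells for full effect; inactives centre near -20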
# Mtb growth – M. tuberculosis H37Rv growth inhibitors, H37Rv strain (AID 1626); M. tuberculosis H37Rv growth inhibition; higher % means a stronger effect; inhibition, % at 10 µM, or IC50 in µM where a hit was titrated; 220,000 compounds, 0.95% hits;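 active = confirmed in a dose series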;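 also: bacteria incubated seven days before Alamar blue readout; 0% = bacteria only wells and 100% = bacteria with antibiotic wells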
# RecA intein inh – inhibitors of M. tuberculosis RecA intein splicing. 290,000 compounds, 0.75% hits. inhibition, %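 (about 9 µM by stock and volumes)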. AID 2221. P9WHJ3. cell-free RecA intein splicing, fluorescence; in the data active = inhibition above about 30%;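 also: 0% = vehicle wells and 100% = reference inhibitor control wells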
# Target sequence (P9WHJ3 whole entry, looked up): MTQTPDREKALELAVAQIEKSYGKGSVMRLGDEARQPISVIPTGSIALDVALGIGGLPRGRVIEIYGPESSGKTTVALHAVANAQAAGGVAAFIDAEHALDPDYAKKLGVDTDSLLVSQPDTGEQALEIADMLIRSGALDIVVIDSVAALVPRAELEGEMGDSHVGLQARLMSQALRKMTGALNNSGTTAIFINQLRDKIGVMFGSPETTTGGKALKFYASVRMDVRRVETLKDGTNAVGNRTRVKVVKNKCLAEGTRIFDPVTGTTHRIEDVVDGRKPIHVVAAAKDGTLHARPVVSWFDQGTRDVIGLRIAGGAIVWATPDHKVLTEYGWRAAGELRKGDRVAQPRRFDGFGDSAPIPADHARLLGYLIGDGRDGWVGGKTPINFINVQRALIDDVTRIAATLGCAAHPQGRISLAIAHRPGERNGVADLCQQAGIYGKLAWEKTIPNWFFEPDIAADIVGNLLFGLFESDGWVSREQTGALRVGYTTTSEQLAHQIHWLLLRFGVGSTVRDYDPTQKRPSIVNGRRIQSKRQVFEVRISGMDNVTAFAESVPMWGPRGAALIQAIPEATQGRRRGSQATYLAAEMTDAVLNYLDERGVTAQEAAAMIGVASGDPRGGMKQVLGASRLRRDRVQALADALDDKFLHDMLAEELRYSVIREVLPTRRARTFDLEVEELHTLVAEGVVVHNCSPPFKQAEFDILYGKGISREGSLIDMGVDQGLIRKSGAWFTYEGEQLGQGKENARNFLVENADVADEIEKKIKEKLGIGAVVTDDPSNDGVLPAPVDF
# Arbovirus anti repeat – recorded beside Arbovirus anti, whose call it bears; inhibition, %; measured here: 10K subset replicate screen; many hits read low in the repeat;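 first of two repeat runs on a subset; 0% = infected and 100% = uninfected wells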
# The depositor's hits bear a star; . = not tested or not shown. Only part of the results is shown. The share of hits here may be higher or lower than overall.
SMILES,Arbovirus anti,Mtb bLac sens,YopH inh,Mtb growth,RecA intein inh,others
COCc1ccccc1Cn1cnc2c1c(=O)n(C)c(=O)n2C,8,-15,-19,-7%,-3.9,
CCOC(=O)c1ccc(Nc2nc(-c3cccnc3)nc3ccccc23)cc1,-14,-3,-21,11%,3.5,
COc1ccc(OC)c(NC(=O)/C=C/c2ccccc2[N+](=O)[O-])c1,-3,6,-12,1%,1.3,
COC(=O)C1=C(C)N(c2ccccc2)C(=S)NC1c1ccccc1C(F)(F)F (centres undefined),10,7,.,10%,3.4,
CC(NC(=O)C(=O)NCCc1c[nH]c2ccccc12)c1ccccc1 (centres undefined),.,0,.,.,-1.1,
Cc1ccc(Nc2ncnc(-n3cccc3)n2)cc1Cl,.,-2,.,9%,1.1,
CCC(=O)Nc1ccc2nc3c(=O)[nH]c(=S)[nH]c3nc2c1,.,-1,.,.,-1.8,
COc1cccc(C2c3[nH]c4ccccc4c3C[C@H]3C(=O)N(c4ccccc4C(=O)N4CCC[C@H]4C(=O)O)C(=O)N23)c1 (some centres undefined),.,-2,.,.,-7.3,
CCc1ccc(NC(=O)C2(c3ccccc3)CC2(Cl)Cl)cc1 (centres undefined),-30,99,-46,8%,0.6,
Cc1cc(Oc2cc(NN3CCCCC3)c([N+](=O)[O-])cc2[N+](=O)[O-])c(C(=O)c2ccccc2)cc1Cl,.,-3,.,.,6.1,
COc1ccc(CNC(=O)CNS(=O)(=O)c2cccc(C#N)c2)cc1OC,.,-3,.,.,-1.4,
OC(COc1ccc2ccccc2c1)CN1CCOCC1 (centres undefined),-1,-7,3,2%,-6.6,
Cn1nccc1C(=O)N1CCN(S(=O)(=O)c2ccc(Br)s2)CC1,.,-3,.,.,-0.9,
O=C(CSc1nnc(COc2ccccc2)o1)N1CCN(c2ccccc2)CC1,-18,.,27,8%,-0.4,
COc1ccc(NC(=S)N(CCCN2CCOCC2)C(C)c2cc3ccccc3o2)cc1 (centres undefined),2,0,.,-6%,-3.1,
CCOc1ccc(CSC(CC(=O)O)C(=O)O)cc1 (centres undefined),0,-15,-51,-7%,-2.5,
COc1cc(-c2cc(=O)c3c(O)c(OC)c(OC)cc3o2)cc(OC)c1O,.,6,.,22%,-2.7,
CCCCCCCN1CCC(=O)N(CCO)CC1,.,-7,.,.,1.6,
CN(C)S(=O)(=O)c1cccc(NC(=O)COC(=O)c2cc3ccccc3oc2=O)c1,.,0,.,2%,.,
COc1cnn(-c2ccc(F)cc2)c(=O)c1Br,-4,-3,.,6%,4.3,
CC(C)n1nnnc1C(c1ccc(F)cc1)N1CCN(C2CCCC2)CC1 (centres undefined),4,.,-18,-9%,-15,
Cc1ccc2[nH]c(C(=O)N/N=C/c3ccc([N+](=O)[O-])cc3)c(C)c2c1,.,-5,.,.,-6.4,
COc1ccccc1C(=O)COC(=O)c1ccccc1O,-2,-7,.,80%,1.2,
CS(=O)(=O)c1ccccc1C(=O)Nc1nc2ccccc2[nH]1,.,-3,.,.,0.2,
CCOc1ccc(/C(O)=C2\C(=O)C(=O)N(c3cc(C)on3)C2c2ccccc2OC)cc1 (centres undefined),16,3,-15,-15%,2.4,
O=C(CN1CCN(c2ccccc2F)CC1)c1c[nH]c2ccccc12,3,-9,-37,.,-0.5,
CC(C)c1ccc(NC2CCCN(C(=O)CCc3cn[nH]c3)C2)cc1 (centres undefined),.,-5,.,.,-3.9,
Cc1nc2c(Br)c(C)nn2c2c1CCC2,17,4,.,-9%,-0.8,
Cc1ccc(C(=O)Nc2ccccc2Sc2ccccc2)cc1,-3,26,-30,.,4.0,
N/C(Cc1ccc([N+](=O)[O-])cc1)=N\OC(=O)c1ccc(Br)cc1,2,8,9,10%,0.7,
Nc1nnc(SCc2nnc(-c3ccccc3)o2)s1,4,72,.,5%,-5.7,
COc1cccc(NC(=O)CN(C)CC(=O)Nc2ccc(Cl)cc2[N+](=O)[O-])c1,10,-1,.,7%,3.2,
Cc1cc(C)nc(N2CCN(c3ncnc4c3cnn4Cc3ccc(Cl)cc3Cl)CC2)n1,.,-8,.,0%,-3.8,
CO/N=C(\C(=O)O)c1csc(NN=C(C)C)n1,3,7,.,-7%,-2.7,
COc1ccc(-c2csc(N3CCN(c4cc5c(cc4Cl)nc(-c4ccncc4)n5CCOCCO)CC3)n2)cc1,.,70,.,.,-1.8,
CCC(=O)N1c2ccc(S(=O)(=O)CCC(=O)Nc3ccc(OC)cc3OC)cc2CC1C (centres undefined),.,-4,.,.,0.8,
Cc1ccc(C(C)C)c(OCC(O)CN(C)Cc2ccccc2)c1 (centres undefined),.,6,.,.,3.5,
O=C(Nc1ccc2c(c1)OCO2)C1CCCCN1S(=O)(=O)c1ccc(F)cc1 (centres undefined),-8,14,7,6%,-0.5,
CC(=O)Nc1cc(C(=O)N2CCN(C)CC2)ccc1S(=O)(=O)c1ccc(C)cc1,7,0,-7,-6%,-1.5,
O=C(Cc1cccs1)Nc1nnc(Cc2ccc(F)cc2)s1,1,.,5,.,.,

# Fetched one by one from above:
SMILES,Arbovirus anti,Mtb bLac sens,YopH inh,Mtb growth,RecA intein inh,others
CC(C)c1ccc(NC2CCCN(C(=O)CCc3cn[nH]c3)C2)cc1 (centres undefined),.,-5,.,.,-3.9,
Cc1ccc(C(C)C)c(OCC(O)CN(C)Cc2ccccc2)c1 (centres undefined),.,6,.,.,3.5,
N/C(Cc1ccc([N+](=O)[O-])cc1)=N\OC(=O)c1ccc(Br)cc1,2,8,9,10%,0.7,

# Carrying on:
SMILES,Arbovirus anti,Mtb bLac sens,YopH inh,Mtb growth,RecA intein inh,others
O=C(COC(=O)CCS(=O)(=O)c1ccc(Cl)cc1)NCCc1ccc(Cl)cc1Cl,-5,1,-25,-1%,-2.4,
CC(=O)N1CCN(C(=S)NCCc2ccccc2)CC1,-14,4,-19,1%,-0.4,
O=C(CCNc1n[nH]c(=O)[nH]c1=O)N/N=C/c1ccccc1Br,2,-5,.,5%,0.6,
Cc1cc(C)nc(N(C#N)CC(=O)c2ccccc2)n1,0,-2,-6,-7%,-0.7,
Nc1nnc(CC(=O)N/N=C/c2cccc(OCCOc3ccccc3)c2)s1,-13,8,-35,13%,2.2,
O=C(CSc1c(Cl)cccc1Cl)NC1CCCc2ccccc21 (centres undefined),6,1,-25,10%,-0.3,
COC(=O)CSc1nc2nc(-c3cccs3)cc(C(F)(F)F)c2c(=O)[nH]1,.,0,.,.,-1.3,
O=C(c1cc2ccccc2oc1=O)N(Cc1ccccc1)Cc1ccc2c(c1)OCO2,-5,0,-33,-8%,19,
CO/N=C(\CCC(=O)O)c1cccs1,.,-2,.,-3%,-1.1,
COc1ccc(/C=N/Nc2cc(N3CCOCC3)ncn2)c(OC)c1,.,-2,.,.,-7.6,
COC(=O)Nc1nc(Sc2ncc(C(F)(F)F)cc2Cl)n[nH]1,4,8,-18,2%,1.5,
Cc1cc(C(=O)NCCC(C)C)c2ccccc2n1,.,-5,.,.,-0.7,
O=C(C1CC(=O)N(c2ccccc2)C1)N1CCN(c2ccc(F)cc2)CC1 (centres undefined),.,4,.,.,-0.2,
Cc1c(C(=O)Nc2ccccc2F)cnn1-c1ccccc1,.,-6,.,.,0.3,
COc1cc(NC(=S)NCc2cccnc2)cc(OC)c1OC,2,-10,.,2%,-1.9,
CCCSc1nnc(Nc2ccccc2C)s1,0,-7,-9,-6%,1.5,
O=C(NC(=S)Nc1nc2c(ccc3ccccc32)s1)c1cccs1,20,-4,-13,20%,-0.8,
Fc1ccc(C2CCCN2Cc2nc(CC3CC3)no2)cc1 (centres undefined),5,-6,.,-13%,-1.1,
Cc1nn(CCC(=O)NCc2ccc(OC(C)C)cc2)c(=O)c2nn(-c3ccccc3)c(C)c12,.,-3,.,.,-2.4,
OC(CN1CCCCCC1)CN(c1ccccc1)c1ccccc1 (centres undefined),.,-2,.,.,-2.1,

# Among those listed so far, these contain a COOH group.
SMILES,Arbovirus anti,Mtb bLac sens,YopH inh,Mtb growth,RecA intein inh,others
COc1cccc(C2c3[nH]c4ccccc4c3C[C@H]3C(=O)N(c4ccccc4C(=O)N4CCC[C@H]4C(=O)O)C(=O)N23)c1 (some centres undefined),.,-2,.,.,-7.3,
CCOc1ccc(CSC(CC(=O)O)C(=O)O)cc1 (centres undefined),0,-15,-51,-7%,-2.5,
CO/N=C(\C(=O)O)c1csc(NN=C(C)C)n1,3,7,.,-7%,-2.7,
CO/N=C(\CCC(=O)O)c1cccs1,.,-2,.,-3%,-1.1,

# The results go on.
SMILES,Arbovirus anti,Mtb bLac sens,YopH inh,Mtb growth,RecA intein inh,others
CCOc1c(C)cnc2c1c(=O)n(Cc1ccccc1Cl)c(=O)n2C,.,-3,.,.,-2.2,
COc1ccc(C(=O)OC(C)CN2CCOCC2)cc1OC (centres undefined),-3,0,-28,-3%,-0.6,
Cc1occc1-c1nnc(SCCCC(=O)c2ccc(F)cc2)n1C,-1,-9,-19,3%,1.3,Arbovirus anti repeat=2
CN1CCN(CCC(=O)Nc2ccccc2)CC1,.,-2,.,.,-2.5,
N#Cc1ccsc1NC(=O)COC(=O)c1ccc(NC(N)=O)cc1,4,4,.,-2%,-1.7,
Cc1cc(C)nc(SCc2nnc(SCC(=O)Nc3ncc(C)s3)n2Cc2ccco2)n1,6,34,-5,-3%,-1.7,
COc1ccc(CN2CCCC(CO)(Cc3ccc(F)cc3)C2)c(OC)c1OC (centres undefined),.,-2,.,.,-0.2,
CC(Oc1ccc(-c2ccccc2)c(F)c1)c1ccn(S(=O)(=O)c2cccc3ccccc23)n1 (centres undefined),13,7,-8,.,0.4,
O=C(NCC1CCCO1)c1ccccc1 (centres undefined),3,-14,-27,-2%,-0.9,
O=[N+]([O-])c1ccc(Cl)c(-c2ccc(/C=N/c3c(-c4ccco4)nc4ccccn34)o2)c1,-7,9,1,.,1.4,
COc1cccc2oc3ccc(C#CC4(N)CCCCC4)cc3c(=O)c12,.,50,.,.,-5.9,
Cc1cccc(C)c1NC(=O)CNCC(=O)Nc1c(C)cccc1C,.,-2,.,.,-0.7,
CC(=O)c1ccc(Nc2nc(C)cc(C)n2)cc1,.,5,.,.,-1.8,
Nc1cccc(C(=O)N/N=C/c2ccsc2)c1,2,-13,.,1%,0.5,
COCC(C)NS(=O)(=O)c1ccc(C(=O)NC(Cc2ccccc2)c2ccccc2)cc1 (centres undefined),.,1,.,.,4.6,
COc1cc([N+](=O)[O-])cc2cc(C(=O)N3CCN=C3c3ccccc3)c(=O)oc12,5,-1,.,1%,1.4,
O=C(OCC(=O)N1CCc2ccccc21)c1cncc(Br)c1,1,-3,.,10%,6.4,
COc1ccc(S(=O)(=O)N2CCCC(C(=O)N3CCOCC3)C2)cc1Cl (centres undefined),.,-4,.,.,3.0,
COC(=O)c1nn(-c2ccc(-c3ccccc3)cc2)cc1O,-1,88,-15,10%,-3.3,
Cc1[nH]nc(SCC(=O)N2CCCC2)c1[N+](=O)[O-],0,-3,.,6%,-2.0,
CCC(=O)Nc1cc2[nH]c(=O)cc(C)c2cc1C,0,-1,.,-2%,6.7,
CCCc1nc2sc3c(c2c(=O)n1NC(=O)c1ccco1)CC(C)(C)OC3,5,1,-25,-1%,-1.7,
Cc1ccc(C(=O)N2CCN(c3ncc(C(F)(F)F)cc3Cl)CC2)s1,.,14,.,.,10,
C[C@H](OC(=O)N1CCN(C(c2ccccc2)c2ccccc2)CC1)[C@@H]1O[C@@]2(C)CCC[C@H]1O2,.,-2,.,.,16,
COC(=O)[C@@]12CCCCN1[C@H](c1ccc(-c3ccccc3)cc1)[C@H]1C(=O)N(C)C(=O)[C@H]12,.,-4,.,.,-0.1,
COc1ccc(S(=O)(=O)N2CCC(C(=O)NCc3ccco3)CC2)cc1C,.,8,.,.,-2.2,
Cc1cc(C)nc(N(C#N)Cc2ccc(Br)cc2)n1,-4,0,-18,-2%,9.0,
Cc1cc(=O)[nH]c(SCC2COC3(CCCCC3)O2)n1 (centres undefined),6,0,4,8%,-0.6,
O=C(Nc1cc(C(F)(F)F)ccc1Cl)c1cc2nc3c(c(C(F)(F)F)n2n1)CCCC3,4,7,-5,3%,-3.5,
CNS(=O)(=O)c1cc(NC(=O)CCCNC(=O)c2ccc(Cl)cc2)ccc1C,.,-5,.,.,1.4,
O=C(NCCCCc1ccccc1)C1CC(c2cccc([N+](=O)[O-])c2)=NO1 (centres undefined),-1,11,2,0%,1.5,
CCNc1nc2c(c(=O)n(C)c(=O)n2C)n1Cc1ccc(Cl)cc1,12,-4,.,.,-1.5,
O=C(Nc1cccc(C(F)(F)F)c1)c1n[nH]c(Cn2cncn2)n1,7,1,-27,-3%,1.9,
CC(C)(C)c1ccc(/C=C/C(=O)Nc2nncs2)cc1,4,12,-18,-1%,-0.9,
COc1ccc(Oc2cc(NN3CCCCC3)c([N+](=O)[O-])cc2[N+](=O)[O-])cc1OC,.,-17,.,.,6.4,
Cc1ccc(/C=N/NC(=O)c2cc(C3CC3)nc3ccccc23)o1,-12,11,-17,8%,0.6,
